High-throughput results from PubChem.
NPYLR7 agonist: agonists of mosquito NPYLR7 receptor, primary screen, cell-based, Aedes aegypti, calcium fluorescence, mosquito biting behavior; HEK293T NPYLR7/Galpha15, GCaMP6s calcium fluorescence; activation, % at 10 µM; 270,000 compounds, 0.15% hits; in the data active = activation above about 40%;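 note: 0% = vehicle and 100% = reference agonist at the receptor; some compounds past the cut are filed as inactive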
NPYLR7 agonist max-min: second read-out of NPYLR7 agonist, no call of its own (marks repeat the call); activation, %; measured here: Max-Min RFU normalised activation; some inactives read as strong as hits;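 span of the calcium signal over five minutes; 0% = vehicle and 100% = native peptide agonist; compound fluorescence can raise it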
* marks the source's active call; other numbers are inactive results; & = joins results of further samples.

SMILES	NPYLR7 agonist	NPYLR7 agonist max-min
Clc1ccc(C2CC(c3cccnc3)=Nc3ncnn32)cc1 (stereo not given)	19.8	12.6
CCCC1N2CC3(C)CN1CC(C)(C2)C3=O (stereo not given)	4.8	5.0
O=C(C(O)c1ccccc1)N1CCN(CCOC(c2ccccc2)c2ccc(F)c(F)c2)CC1 (stereo not given)	12.8	18.6
CC(C)c1nccc(CN2CCCN3CCC[C@H]3C2)n1	0.6	-1.4
Cc1ccsc1C(=O)C1CCCN(Cc2cccn2-c2cccnc2)C1 (stereo not given)	-8.1	-10.1
N#CC(C#N)=Cc1sc2ccccc2c1Cl	21.5	25.4
CCN1C[C@]2(COC(=O)c3ccccc3N3C(=O)C[C@H](C)C3=O)CC[C@H](OC)[C@]34C2[C@H](OC)[C@](O)([C@H]13)[C@@]1(O)C[C@H](OC)[C@H]2C[C@@H]4[C@@H]1[C@H]2OC	0.7	-3.1
O=c1cc(-c2ccccc2)[se]c2ccccc12	12.5	10.6
COc1ccc(C(=O)N(Cc2cc(NC(=O)C3CCCC3)ccc2N(C)C2CCN(C)CC2)CC(C)C)cc1	-2.4	-3.2
C[C@]12CC[C@H]3[C@@H](CCC4=CC(=O)CC[C@@H]43)[C@@H]1CC[C@@H]2O	8.0&-12.4	-5.1&-17.1
O=C(O)CCC1NCC2CC1CN1CCCC[C@@H]21 (stereo not given in full)	3.5	2.6
O=C(O)CCC(=NNP(=S)(c1ccccc1)c1ccccc1)C(=O)O	4.5	3.8
CNc1cc(C(=O)N2CCN3CCNC(=O)C3C2)ccn1 (stereo not given)	7.1	5.0
CCOC(=O)[C@H]1C[C@@H]2O[C@H]1[C@H]1CN(Cc3cncnc3)C[C@H]1[C@@H]2O	4.5	6.3
CCN(CC)c1ccc(C=C2C(=O)N(c3ccccc3)C(=S)N(c3ccccc3)C2=O)cc1	-1.9	-4.7

(further entries)
SMILES	NPYLR7 agonist	NPYLR7 agonist max-min
N#CC1(N)C2CN3CCN(C2)CC1(c1ccccc1)C3 (stereo not given)	0.0	-4.8
CCOC(=O)c1c(C)n(C2CCCCC2)c2ccc(O)cc12	-3.5	-15.0
CC(C)NC(C)Cc1ccc(I)cc1 (stereo not given)	5.3	-34.4
CCCN1CCCN(C(=O)Cc2c(C)nn(C)c2C)CC1	3.9	1.8
Cc1cc(C(=O)N2CC[C@H]3CC[C@@H](C2)N3)cc(=O)[nH]1	-0.2	1.3
Cc1ccc(-n2nc(C(C)(C)C)c3c2N(CC(=O)O)C(=O)CSC3c2ccccc2F)cc1 (stereo not given)	-5.8	-13.5
COc1ccc2c(c1)c(C(=O)N1CCN(CCO)CC1)nn2Cc1ccc(OCc2ccccc2)cc1	5.5	6.7
Cc1cc(C(=O)N2CCN3CCN(C)C(=O)C3C2)c(=O)[nH]c1C (stereo not given)	2.7	-0.3
OC1(c2ccccc2)C[N+]2=C(CCCCC2)N1Cc1ccccc1 (stereo not given)	1.6	8.2
O=S(=O)(c1ccc(C(F)(F)F)cc1)N1CCN(CCOC(c2ccccc2)c2ccc(F)c(F)c2)CC1 (stereo not given)	4.1	-2.0
C1=NC2(CCNCC2)SC1Cc1ccccc1 (stereo not given)	23.4	9.0
Oc1ccc(N2CCN(Cc3c(F)cccc3Cl)CC2)cc1	9.0	7.7
NCCc1c[nH]c2ccc(C(N)=O)cc12	-9.5&-0.3	-14.2&-22.8
CCCCc1ncc(-c2nccn2C(C)c2ccc(C)nc2)[nH]1 (stereo not given)	11.4	2.0
CCC1CN(Cc2cccc(F)c2C)CCN1C(C)C (stereo not given)	7.3	-3.0

Continued.
SMILES	NPYLR7 agonist	NPYLR7 agonist max-min
COP(=S)(OC)SCn1nnc2ccccc2c1=O	-5.3	-9.8
CCOC(=O)C1C(C=C(C)C)C1(C)C (stereo not given)	-11.9	-13.0
CC(C)(C)c1nn(-c2cccc(F)c2)c2c1C(c1ccccc1Cl)SCC(=O)N2CC(=O)NC1CC1 (stereo not given)	15.3	23.3
CS(=O)(=O)Nc1c([N+](=O)[O-])cccc1[N+](=O)[O-]	-1.3	-3.9
CC12CN3CCN(C1)CC(C)(C3)C2=O	3.0	5.1
CCCCCCC(C)(C)c1ccc([C@@H]2C[C@H](O)CC[C@H]2CCCO)c(O)c1	6.3	-7.2
N#CC(=Cc1ccc(O)c(O)c1)C(N)=S	2.9	-25.7
COc1ccccc1C1SCC(=O)N(CC(=O)O)c2c1c(-c1ccccc1)nn2-c1cccc(C)c1 (stereo not given)	-1.9	-5.9
O=[N+]([O-])c1cc(F)ccc1N1CCN(Cc2ccccc2)CC1	20.8	15.9
O=S(=O)(c1ccc(C(F)(F)F)cc1)N1CCN(CCOC(c2ccc(F)cc2)c2ccc(F)cc2)CC1	1.9	1.0
Cc1cc(NC(=O)c2cccn(Cc3cccc(Cl)c3)c2=O)c2ccccc2n1	15.7	8.8
Cc1ccccc1CC(=O)N1CCN(Cc2ccc(-c3noc(-c4cccnc4)n3)cc2)CC1	0.8	-7.0
COc1ccccc1CC(C)N(C)C(=O)NC1CCSCC1 (stereo not given)	5.0	5.0
N#Cc1cc2c(nc1SCC(=O)N1CCNC1=O)CCC2	1.7	-2.5
Cc1ccc(C(=O)N2CCN(C)C3(CCN(C)CC3)C2)c(=O)[nH]1	0.3	-2.7

Record cards, as listed above:
`OC1(c2ccccc2)C[N+]2=C(CCCCC2)N1Cc1ccccc1` (stereo not given) across the screens: NPYLR7 agonist: 1.6; NPYLR7 agonist max-min: 8.2
`N#CC(C#N)=Cc1sc2ccccc2c1Cl` across the screens: NPYLR7 agonist: 21.5; NPYLR7 agonist max-min: 25.4

Carrying on.
SMILES	NPYLR7 agonist	NPYLR7 agonist max-min
COc1ccccc1[C@@H]1CN(C(=O)c2cnoc2C)[C@@H]2C3CCN(CC3)[C@@H]21	-1.6	-1.3
CC1=C(C(=O)OCc2ccccc2)C2(C(=O)Nc3ccccc32)C(C#N)C(=N)O1 (stereo not given)	-3.4	-7.9
Cc1noc(C)c1CC(=O)N1CCCC(N2CCN(c3cccc(Cl)c3)CC2)C1 (stereo not given)	3.6	0.8
CNc1ccc(Cl)cc1C(=O)c1ccccc1	5.0	6.1
Cn1c(=O)oc2cc(S(=O)(=O)N3CC4CC(C3)c3cccc(=O)n3C4)ccc21 (stereo not given)	4.3	5.8
CCN1C[C@]2(C)CC[C@H](OC)[C@@]34C1[C@]1(OCO[C@@]15C[C@H](OC)[C@H]1C[C@]3(O)[C@@H]5[C@H]1OC)[C@@H](OC(C)=O)[C@H]24	-7.8	-9.8
Cc1ccccc1-n1cc(C2=CCN(CCN3CCCCC3)CC2)cn1	10.4	3.7
CCOC(=O)C1C(=N)Oc2cc(C)n(CC)c(=O)c2C12C(=O)N(C)c1ccccc12 (stereo not given)	-0.7	-4.8
NP(=O)(Oc1ccccc1F)Oc1ccccc1F	5.6	4.9
Cc1cc(C(=O)OCC(=O)N(C2=CCCCC2)C2CC2)c(C)n1C1CC1	11.0	5.7
NC(=O)c1ccsc1NC(=O)CN1CC=C(c2ccc(O)cc2)CC1	11.4	9.3
CCCCCNC(=O)C1CC=CCC1C(=O)N1CCC(C#N)(c2ccccc2)CC1 (stereo not given)	-5.6	-15.1
CN(C)c1ccc(P(=S)(N(C)C)N(C)C)cc1	-6.7	-13.4
C#C[C@]1(O)C=C[C@H]2[C@@H]3CCC4=CC(=O)CC[C@@H]4[C@H]3CC[C@@]21CC	-6.3	-9.0
N[C@@]1(C(=O)O)CC[C@@H](C(=O)O)C1	6.3	-6.3

(listing goes on)
Below each SMILES – NPYLR7 agonist, NPYLR7 agonist max-min
O=[N+]([O-])c1cccc(NP(=O)(Oc2ccccc2)Oc2ccccc2)c1
 : -5.3, -10.1
OC(c1ccc(Cl)s1)(c1ccc(Cl)s1)C1CN2CCC1CC2 (stereo not given)
 : 17.5, 9.4
N#CC1(c2ccccc2)CCN(C(=O)c2ccc(Cc3ccccc3)o2)CC1
 : -7.6, -13.7
Cn1nc(C(C)(C)C)c2c1N(CC(=O)NCc1ccco1)C(=O)CSC2c1ccc(F)cc1F (stereo not given)
 : -5.4, 1.9
O=C(O)COc1ccccc1CN1CCN(CCOC(c2ccccc2)c2ccc(F)c(F)c2)CC1 (stereo not given)
 : 22.5, 15.9
CC1=C2CCC3C(CC[C@]4(C)C(=O)CCC34)[C@@]2(C)CCC1=O (stereo not given in full)
 : -16.6, -19.1
COc1cc(C=C(C#N)C#N)cc(O)c1O
 : 4.1, -40.1
COc1ccc2c(c1O)-c1cccc3c1[C@@H](C2)N(C)CC3
 : -0.9, -28.1
Cc1noc(C)c1CC(=O)N1CCN(CC2CCCO2)CC1 (stereo not given)
 : 6.9, 10.9
CC(C)CN(Cc1cc(NC(=O)C2CCC2)ccc1N(C)C1CCN(C)CC1)C(=O)c1ccc(F)cc1
 : 15.1, 30.1
CCC(O)Cn1cc(C2=CCN(CC(=O)N3C[C@@H](C)O[C@@H](C)C3)CC2)cn1 (stereo not given in full)
 : 13.2, 5.7
Fc1cc(C2NCc3ccccc3-n3cccc32)cc(F)c1F (stereo not given)
 : 0.2, -0.6
Clc1ccc(-c2noc3c2CN(CCc2c[nH]c4ccccc24)CC3)cc1
 : -6.6, -14.3
OC[C@@H]1[C@H]2CN(C3COC3)CCN2C[C@H]1c1ccccc1
 : 5.2, 15.4
CC(C)(C)c1cc(C=C(C#N)C#N)cc(C(C)(C)C)c1O
 : 2.9, -10.7
C=CCOC(=O)C1=C(C)OC(=N)C(C(=O)OCCOC)C12C(=O)Nc1ccccc12 (stereo not given)
 : 11.1, 11.0
CN(C)S(=O)(=O)c1ccc(OCCN2CC=C(c3ccccc3)CC2)cc1
 : -1.0, -2.0
COc1ccc(OC)c(NC(=O)N2CCN(CCOC(c3ccccc3)c3ccccc3)CC2)c1
 : 15.4, 7.6
Cc1ccnc(CC(C)N(C)CC(C)(C)CN2CCOCC2)c1 (stereo not given)
 : -0.5, 12.5
Cc1cc(C(=O)O)c(C)n1C1CC1
 : -0.1, -1.4
CNC(C)c1nc2ccccc2c(=O)n1-c1cccc(C)c1 (stereo not given)
 : -11.7, -8.8
O=C(c1ccc(C(F)(F)F)cc1)C1CCCN(Cc2cccnc2)C1 (stereo not given)
 : 4.3, -3.3
COc1cc2c(cc1O)CC1c3c(cc(O)c(OC)c3-2)CCN1C (stereo not given)
 : -6.5, -11.6
COc1ccc(OC)c(C2SCC(=O)N(CC(=O)N3CCOCC3)c3c2c(C(C)(C)C)nn3C)c1 (stereo not given)
 : 23.9, 17.6
CC(=NNP(=S)(c1ccccc1)c1ccccc1)c1ccc(C#N)cc1
 : 2.2, -0.3
COc1cccc(CC(C)NC(=O)NCC2CCCC2O)c1 (stereo not given)
 : 2.3, 0.8
COc1ccc2c(c1)c(C(=O)NCc1snnc1C(C)C)c(C)n2C
 : 17.6, 8.1
CCCc1nc(C)cc(N2[C@H]3CCNC[C@@H]2CC3)n1
 : 6.1, 2.5
CN1CCC(N2C[C@@H]3C[C@H](C2)c2ccc(-c4cncnc4)c(=O)n2C3)CC1
 : -6.6, -16.1
CC(C)(C)c1cc(C=C2C(=O)NC(=O)NC2=O)cc(C(C)(C)C)c1O
 : 5.5, 2.6

(cont.)
Below each SMILES – NPYLR7 agonist, NPYLR7 agonist max-min
Cc1nnnn1CCCN1CCC2(CC1)C(=O)Nc1ccccc12
 : 6.1, 4.2
CN1C(=C2C=NN(C)P2(=S)N2CCOCC2)C(C)(C)c2ccccc21 (stereo not given)
 : 9.3, 6.9
O=C(Cc1ccc(Cl)c(Cl)c1)N1CCN(CCO)CC1
 : 8.2, 2.7
COC1=C[C@]23CCCN2CCc2cc4c(cc2[C@@H]3[C@@H]1O)OCO4
 : 2.7, 2.9
S=P(NN=Cc1cccnc1)(c1ccccc1)c1ccccc1
 : -6.3, -10.5
Oc1ccc(C=NNP(=S)(c2ccccc2)c2ccccc2)cc1
 : 4.8, 2.7
O=C(NCCCN1CCCC1=O)C(C1CCCC1)N1CCN(C(=O)Cc2cccs2)CC1 (stereo not given)
 : -8.0, -10.4
CC(C)=CCC12CN3CCN(CC(C3)C1O)C2 (stereo not given)
 : -0.5, 3.8
O=C(CN1CN(c2ccccc2)C2(CCNCC2)C1=O)NCc1cccc(C(F)(F)F)c1
 : -5.7, -12.9
CCNC(=O)c1cn(CC2CCCCC2)cc(C(=O)N2CCN(c3ccc(C(C)=O)cc3)CC2)c1=O
 : 16.1, 0.2
CC(C)OP1(=S)C2=C(N3CCCC3)CCCC2=NN1c1ccccc1 (stereo not given)
 : 1.2, 0.8
O=C(C(O)c1ccccc1)N1CCN(CCOC(c2ccc(F)cc2)c2ccc(F)cc2)CC1 (stereo not given)
 : 13.6, 20.5
C[C@H](N)Cn1ccc2cc(F)c(Cl)cc21
 : -7.5, -14.5
O=C1Nc2cc(Cl)c(Cl)cc2N2CCNCC12 (stereo not given)
 : 6.2, 8.6
Cc1ccc(F)cc1-c1cccc(CCN)c1
 : 10.2, -7.6
C[Se]C[C@H](N)C(=O)O
 : 1.7, -12.0
O=C(c1cc(C(F)(F)F)ccc1F)N1CCN(CCOC(c2ccccc2)c2ccccc2)CC1
 : 3.6, -0.2
CC(C)(C)CC(=O)NC1CCSC1=O (stereo not given)
 : -0.8, 4.4
Cc1ccc(-n2nc(-c3ccccc3)c3c2N(CC(=O)N2CCOCC2)C(=O)CSC3c2sccc2C)cc1 (stereo not given)
 : 17.0, 4.0
O=[N+]([O-])c1ccccc1C=NNP(=S)(c1ccccc1)c1ccccc1
 : -0.8, -2.4
O=C(Cc1ccc(O)cc1)N1CCN(Cc2ccccc2CO)CC1
 : 4.4, -1.7
COC(=O)CCCCCCC(=O)Nc1ccc2[nH]cc(CCN3CCOCC3)c2c1
 : 16.5, 11.8
C(#CCN1CCOCC1)COCC#Cc1ccccc1
 : -11.0, -12.0

As entered above.
NPYLR7 agonist with Cn1nc(C(C)(C)C)c2c1N(CC(=O)NCc1ccco1)C(=O)CSC2c1ccc(F)cc1F (stereo not given) = -5.4
NPYLR7 agonist max-min with Cc1cc(C(=O)N2CCN3CCN(C)C(=O)C3C2)c(=O)[nH]c1C (stereo not given) = -0.3
NPYLR7 agonist max-min with Cc1ccc(C(=O)N2CCN(C)C3(CCN(C)CC3)C2)c(=O)[nH]1 = -2.7

An excerpt. The share of hits here may be higher or lower than overall.
